VDR inhibitor – vitamin D3 receptor (human) inhibition. P11473. AID 504847. VDR-SRC2-3 peptide fluorescence polarization, 2 h. hit rate 0.93% among 400,000. Potency, µM, without a hit: max response, negative = inhibition, usual class: inhibitors; active = well fitted inhibition curve with a large enough effect; inconclusive = small, poorly fitted or top-dose-only effect, or another doubt; inactive = no such curve, though single readings can be large or run the other way; note: series mostly up to about 120 µM
Target sequence (P11473 whole entry, looked up): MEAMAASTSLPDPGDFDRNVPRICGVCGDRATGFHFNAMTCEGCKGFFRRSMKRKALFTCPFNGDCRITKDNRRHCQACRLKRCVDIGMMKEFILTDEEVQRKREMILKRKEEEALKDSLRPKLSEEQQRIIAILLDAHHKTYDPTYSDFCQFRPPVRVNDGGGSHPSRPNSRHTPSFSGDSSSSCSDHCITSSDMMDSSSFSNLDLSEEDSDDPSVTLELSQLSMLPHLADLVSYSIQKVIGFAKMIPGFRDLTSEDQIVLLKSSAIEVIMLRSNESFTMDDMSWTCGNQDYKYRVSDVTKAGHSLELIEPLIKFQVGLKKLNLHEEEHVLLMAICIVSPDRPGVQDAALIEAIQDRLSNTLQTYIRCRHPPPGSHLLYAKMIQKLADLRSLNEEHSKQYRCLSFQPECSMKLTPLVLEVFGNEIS
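After 23 nl compound addition and a short centrifugation, plates sat for 2 hours at ambient temperature; polarization of fluorescence then indicated loss of VDR binding to peptide SRC2-3.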
An asterisk follows results filed as active; ? = inconclusive; & = joins results of further samples; [ ] = remark or other dose. % is set by controls: 0 for no effect and ±100 for the full control effect; potency is the fitted concentration of half-maximal effect.

SMILES	VDR inhibitor
CCOc1ccccc1N1CC(c2nc3ccccc3n2CCOc2ccc(C(C)(C)C)cc2)CC1=O (centres undefined)	-3%
CCN(CC(=O)NCc1ccc(Cl)cc1)C(=O)/C=C/c1ccc(C#N)cc1	-17%
Cc1ccc2[nH]c(=O)c(CN(Cc3nnnn3Cc3ccccc3)C3CCCC3)cc2c1	-5%
FC(F)(F)c1ccccc1-c1cc(NCc2cccs2)ncn1	?
CCCC(=O)NCCc1nc2ccccc2n1CCC	-5%
Cc1ccc(S(=O)(=O)N2CCC(C(=O)Nc3nnc(-c4ccc(F)cc4)s3)CC2)cc1	-19%
COC(=O)C1=C(C)NC(=O)/C1=C\c1cc(C)n(-c2ccc(F)cc2)c1C	5%
CC(C)NC(=O)NC(=O)COc1cccc2c1OC(C)(C)C2	-3%
S=c1nc(C2CC2)[nH]c2ccccc12	?
CCOc1ccc(C(=O)Cc2cc3cccc(OC)c3oc2=O)cc1	17%
COc1cc(OC)cc(C(=O)N[C@H](C(=O)Nc2ccc3c(c2)OCO3)C(C)C)c1	-15%
Cc1nn(-c2ccccc2)c(N2CCCCC2)c1/C=N/O	4%
Cc1nc(Cc2nnc(SC(C)C(=O)Nc3cccc(C#N)c3)o2)cs1 (centres undefined)	8%
Cc1ccc(NC(=O)CSCC(=O)N2CCN(C(=O)c3ccco3)CC2)cc1	-7%
O=C(Nc1cccc(C(=O)OCc2cc(=O)n3c4c(sc3n2)CCCC4)c1)c1ccccc1	0%
Cc1cc(C)c2c(=O)cc(C(=O)Nc3nc4ccc(F)cc4s3)oc2c1	7%
Cc1cc(NC(=O)CCCC(=O)O)nc(C)n1	-6%
O=C(COC(=O)c1ccc[n+]([O-])c1)Nc1ccc([N+](=O)[O-])cc1C(F)(F)F	6%
CN1C(C(=O)NCC2CC2)CC2Cn3c(nc4ccccc43)C21 (centres undefined)	-24%
C=CCOc1ccc(C=NNc2ccc(S(=O)(=O)Nc3ccccc3C(=O)O)cc2[N+](=O)[O-])cc1OC	?
CN(Cc1ccccc1)C(=O)c1ccco1	19%
O=C(c1ccccc1)N1CCN(C(=O)c2ccccc2)CC1	11%&16%
COc1ccc(-c2nn(-c3ccccc3)cc2C(=O)N2CCN(S(=O)(=O)c3ccccc3[N+](=O)[O-])CC2)cc1	-12%
COCc1nnc(NS(=O)(=O)c2ccc(F)cc2)s1	-18%
COc1ccc(N/N=C(\C#N)C(=O)NCCc2ccc(OC)c(OC)c2)cc1	-16%
OC(CN(Cc1ccccc1)Cc1ccccc1)c1ccccc1 (centres undefined)	8%
O=C(c1ccc(CN2CCOCC2)cc1)N1CCC(Cc2ccccc2)CC1	2%
O=C(CNC(=O)Cc1ccccc1)NCc1cccs1	-5%
COc1ccc(Br)cc1CNC(C)c1ccccc1 (centres undefined)	-16%
O=C1CNC(=O)N1Cc1ccc(Br)cc1	-5%
CCCn1c(SCC(=O)Nc2nnc(C)s2)nnc1-c1ccoc1C	?
CCc1ccc2c(COC(=O)CNS(=O)(=O)c3ccc(NC(C)=O)cc3)cc(=O)oc2c1	-9%
COCCN=C1NN=C(c2ccc(NC(C)=O)cc2)CS1	?
COc1cc2c(cc1OC)C(c1cc(OC)c(O)c(OC)c1)CC(=O)N2 (centres undefined)	-6%
CC[C@H](C)Cc1cn([C@@H](CCCN=C(NC(=O)OC(C)(C)C)NC(=O)OC(C)(C)C)C(=O)NCCCCCCCCCCC(=O)N2CCN(C(=O)OC(C)(C)C)CC2)nn1	-4%
Cc1ccc(NC(=O)C(NS(=O)(=O)c2cccc3nsnc23)C(C)C)nc1 (centres undefined)	-10%
S=C(c1ccco1)N1CCOCC1	-22%
O=C(NC(=S)Nc1ccc2c(c1)OCO2)c1ccc(Cl)cc1	16%
COc1ccc2nc(SCC(=O)c3c(N)n(C4CC4)c(=O)[nH]c3=O)[nH]c2c1	-9%
Cc1ccc(S(=O)(=O)Nc2nc3cc(C)c(C)cc3[nH]2)cc1	-8%
O=C(Nc1ccon1)Nc1ccccc1C(F)(F)F	?
CN(C)c1nc(SCCOC(=O)Nc2ccccc2)nc(N(C)C)n1	-23%
CCCCC(=O)Nc1cc(C)c(O)c(-c2nc3ncccc3o2)c1	7%
Cn1c(=O)n(Cc2ccccc2Br)c2ccccc21	7%
CCOCCCn1c(SCC(=O)Nc2cc(C(C)(C)C)nn2-c2ccccc2)nc2ccccc2c1=O	?
C=Cn1cc[n+](CC(=O)c2ccc(Cl)c(Cl)c2)c1	-4%
O=C(COC(=O)CCCC1=NS(=O)(=O)c2ccccc2N1)Nc1ccccc1	-15%
CCOCCc1nn2c(=O)cc(COC(=O)Cc3ccccc3)nc2s1	-12%

Sorted by heavy-atom count (lowest first): part of the list above
SMILES	VDR inhibitor
S=C(c1ccco1)N1CCOCC1	-22%
CN(Cc1ccccc1)C(=O)c1ccco1	19%
CC(C)NC(=O)NC(=O)COc1cccc2c1OC(C)(C)C2	-3%

Continuation.
SMILES	VDR inhibitor
CC(C)c1ccc(NC(=O)COC(=O)c2cc(=O)[nH]c3ccccc23)cc1	31%[activator]
Cc1ccc(C(=O)NCC(=O)OC(C)C(=O)Nc2ccc(N3CCOCC3)cc2)s1 (centres undefined)	-5%
Cc1ccc(C(=O)NC(=S)NCc2cccnc2)c(C)c1	-4%
CCc1cccc(C)c1NC(=O)CCS(=O)(=O)c1cc(Br)cc2c1N(C(=O)C1CC1)CC2	-21%
CCOC(=O)c1c(NC(=O)C2c3ccccc3Oc3ccccc32)sc(C)c1C	-4%
COc1ccc(Br)cc1C(=O)Nc1ccc(Cc2ccncc2)cc1	-3%
O=C(NCc1cccs1)c1csc2c1CCCCC2	13%
Oc1ccc(CCC2CCCCN2Cc2nc(C3CC3)no2)cc1 (centres undefined)	22%
CC1CCC(NC(=O)COc2ccccc2C(N)=O)CC1 (centres undefined)	-22%
CC(C(=O)OCC(=O)NC1CCCC1)N1C(=O)c2ccccc2C1=O (centres undefined)	-7%
O=C(N/N=C/c1ccc[nH]1)c1cc(-c2ccc(Cl)cc2)nc2ccccc12	-2%
CCOc1ccc(NC(=O)CN(C)C(=O)/C=C/c2ccco2)cc1OCC	110%[activator]

Retrieved by structure from above, three records:
SMILES	VDR inhibitor
Cc1ccc2[nH]c(=O)c(CN(Cc3nnnn3Cc3ccccc3)C3CCCC3)cc2c1	-5%
COCCN=C1NN=C(c2ccc(NC(C)=O)cc2)CS1	?
O=C(NCc1cccs1)c1csc2c1CCCCC2	13%

Following part
SMILES	VDR inhibitor
Cc1nc(NCC2CCCO2)c2nnn(Cc3ccccc3)c2n1 (centres undefined)	-18%
CC(C)C(=O)NCC(c1ccc2c(c1)OCO2)N1CCN(c2ccccc2F)CC1 (centres undefined)	9%
CC(C)Cc1ccc(C(C)C(N)=NCCc2ccccc2)cc1 (centres undefined)	6%
CCCCNC(C(=O)Nc1ccc(Cl)c([N+](=O)[O-])c1)c1ccccc1 (centres undefined)	-13%
COc1ccc(C2NC(=S)N(c3ccccc3)C(C)=C2C(=O)Nc2ccccc2)cc1 (centres undefined)	11%
Cc1ccnc(NS(=O)(=O)c2ccc(NC(=O)Cc3cccs3)cc2)n1	23%
COc1ccc(C2CC(=O)c3cnc4c(-c5ccccc5)c(C)nn4c3C2)cc1OC (centres undefined)	16%
Cc1cc(C)c(C#N)c(SCC(=O)Nc2ccccc2C)n1	-8%
C(#Cc1ccccc1)CN1CCN(c2ccccn2)CC1	11%&12%
CN(C)CCCNC(=O)C[C@H]1C[C@H](C(=O)N2CCOCC2)[C@@]2(C)c3[nH]c4ccc(Cl)cc4c3CCN2C1=O	-22%
COc1ccc(NC(=O)COc2ccc(/C=N/NC(=O)c3cccnc3)cc2OC)cc1	2%
O=C(CNC(=O)Cc1ccccc1)N=Nc1c(O)[nH]c2ccc(Br)cc12	-5%
CCCc1cc(=O)[nH]c(SCC(=O)N2CCc3ccccc3C2)n1	?
O=c1c(Cc2ccc(F)cc2)c(O)ccn1Cc1cccc(Cl)c1	5%
COc1ccc(/C=N/NC(=O)COc2cccc3cccnc23)cc1OC	-10%
COc1ccc2[nH]c(=O)c(CN(C(=O)COc3ccccc3)C(C)C)cc2c1	18%
CCCC(=O)Nc1ccccc1N1CCN(C(=O)c2ccccc2)CC1	12%
CCCCNC(=O)CCc1nc2cccnc2n1Cc1ccc(OC)cc1	2%
O=C(Cn1c(=O)c2sccc2n(CC(=O)Nc2ccc(Cl)cc2Cl)c1=O)NCCc1ccccc1	22%
C/C(=N\N=C1/NC(=O)C(C)S1)c1ccco1 (centres undefined)	-3%
Cc1ccccc1Cn1c(-c2cccs2)nc2ccccc21	3%
CCc1nnc(NC(=O)COc2ccccc2[N+](=O)[O-])s1	1%
COCCn1c(SCC(=O)NNC(=O)c2ccc(OC)c(OC)c2)nc2ccccc2c1=O	16%
COc1ccc(C2=C(CN(C)C)C(c3ccccc3)c3ccccc3O2)cc1 (centres undefined)	11%

Three of these compounds in another layout.
> C(#Cc1ccccc1)CN1CCN(c2ccccn2)CC1
  VDR inhibitor: 11%&12%

> CC[C@H](C)Cc1cn([C@@H](CCCN=C(NC(=O)OC(C)(C)C)NC(=O)OC(C)(C)C)C(=O)NCCCCCCCCCCC(=O)N2CCN(C(=O)OC(C)(C)C)CC2)nn1
  VDR inhibitor: -4%

> COC(=O)C1=C(C)NC(=O)/C1=C\c1cc(C)n(-c2ccc(F)cc2)c1C
  VDR inhibitor: 5%

Next part.
SMILES	VDR inhibitor
O=C(CSc1nnc(-c2ccncc2)n1-c1ccc(Cl)cc1)Nc1ccc(C(=O)O)cc1	-13%
Cc1ccc(N(C(=O)c2csnn2)C(C(=O)NC2CCCC2)c2ccccn2)cc1 (centres undefined)	-15%
COc1ccc(OCC(=O)Nc2ccc(S(=O)(=O)N3CCN(C)CC3)cc2)cc1	-13%
CCN(CC(=O)Nc1ccccc1OC)C(=O)CSCc1c(C)noc1C	9%
Cc1ccc(C)c(N2CCN(C(=O)C3CCCN(S(=O)(=O)c4cccc5nonc45)C3)CC2)c1 (centres undefined)	-4%
COc1ccc(NC(=S)N(CCCN2CCCCC2)Cc2cccs2)cc1	-10%
CCCCn1cnc2c(=S)nc(N)[nH]c21	5%
CC(C)[C@H](NC(=O)C1CCN(S(=O)(=O)c2ccccc2)CC1)C(=O)NCc1ccccc1	21%
c1cnc2ccc3ncccc3c2c1	-14%
O=C(COC(=O)C1CC(=O)N(Cc2ccccc2)C1)c1ccc(F)cc1 (centres undefined)	-15%
CC(=O)Nc1cccc(Oc2cc(C#N)c(C#N)cc2N2CCCCCC2)c1	0%
CN(C(=O)c1cccc(NC(=O)Cc2cccc(NC(=O)C3CCCN(C(=O)CCc4ccccc4)C3)c2)c1)C1CCC1 (centres undefined)	-16%
COc1ccc(-c2c(-c3ccc(O)cc3O)n[nH]c2C(F)(F)F)cc1	-11%
COc1ccc(S(=O)(=O)Nc2nc3n(n2)C(c2ccc(Cl)cc2)CC(=O)N3)cc1 (centres undefined)	7%
Cc1ccc(CNC(=O)CN2C(=O)c3ccccc3S2(=O)=O)cc1	0%
COc1ccc(CN2CCN(C(=O)c3ccc(F)cc3)CC2)c(OC)c1	-1%
CN1C(=O)Cc2cc(S(=O)(=O)CCC(=O)N3CCN(c4ccc(Cl)cc4)CC3)ccc21	17%
Cc1cccc(SC2CCN(C(=O)C3CCC(=O)N(C4CC4)C3)CC2)c1 (centres undefined)	20%
CC(=NNC(=S)N(Cc1ccccn1)Cc1ccccn1)c1cnccn1	-3%
COc1cccc(CN2CCN(Cc3cccc4c3OCO4)CC2CCO)c1 (centres undefined)	0%
Cc1ccc(NC(=O)Nc2nnc(SCC(=O)N(C(C)C)C(C)C)s2)cc1	19%
N=C1C(c2ccccc2)=C(O)CN1c1ccccc1N1CCOCC1	7%
O=C(CCNS(=O)(=O)c1ccccc1)OCc1nnc(-c2ccccc2)o1	-23%
Cc1nn(-c2ccc(Cl)cc2)c2nc(-c3cccnc3)cc(C(F)(F)F)c12	16%
CCCS(=O)(=O)c1c(S(=O)(=O)CCC)c2c(N)cccn2c1C(=O)c1ccc(Br)cc1	-6%
O=C(Nc1ccc(S(=O)(=O)N2CCCC2)cc1)C1CCCCC1	-9%
Cn1c(N2CCCCC2)nc2c1c(=O)n(Cc1cccc(Br)c1)c(=O)n2C	2%
COc1ccc(C(=O)N2CCCC2)cc1	11%
Cc1ccc(OC(=O)c2ccccc2C(=O)OCC(F)(F)C(F)F)cc1	11%
O=C(/C=C/c1ccco1)OCc1nnc(-c2ccccc2)o1	-4%
COc1ccc(S(=O)(=O)N2CCN(c3ccccc3)CC2)cc1	?
O=C(Nc1ccccc1Cl)NC1(C(=O)N2CCCC2)CCCCC1	3%
Cn1c(=O)cc(SCC(=O)NCCC2=CCCCC2)c2ccccc21	-9%
O=C(CSc1ncn[nH]1)N1c2ccccc2Sc2ccccc21	-28%
Cc1ccc(CN2CCN(/N=C/c3cc(Br)cc(Br)c3O)CC2)c(C)c1	-18%
CCCS(=O)(=O)N1CCN(CCN2C(=O)c3cccc4cccc(c34)C2=O)CC1	?
CN(C)S(=O)(=O)c1ccc(C(=O)Nc2cccc(C(=O)N3CCOCC3)c2)cc1	5%
O=C(NCc1ccc(F)cc1)c1cccc(S(=O)(=O)N2CCCC2)c1	-9%
COc1cc(/C=N/NC(=O)c2ccc(N)cc2)ccc1OC(=O)c1cccc(C)c1	-11%
CCn1ccc2cc(S(=O)(=O)N3CCC(C(=O)NCc4cccc(C)c4)CC3)ccc21	-7%
CCC(=O)NC(=S)Nc1ccc(NC(=O)CC)cc1	-4%
O=CC1=C(N2CCOCC2)/C(=C/c2ccc(Cl)cc2)CC1	?
CCOC(=O)N1CCN(C(=O)CSc2cc(C)nc3c(-c4ccccc4OC)c(C)nn23)CC1	-13%
CCc1nnc(NC(=O)C=C(C)C)s1	6%
CN(C)CC(C)(C)CNC(=O)c1cc(Br)cc(Br)c1O	0%
CCCCc1ccc(NC(=O)c2cc3c(=O)n4ccccc4nc3n2C)cc1	5%

A portion of the library (hit frequency here may not be typical).
